Source: PubChem (National Center for Advancing Translational Sciences (NCATS))
Cruzain inh Det: blocks cruzain activity in presence of Triton detergent; 0.43% of 200,000 active; Potency, µM, for inactives: max response, negative = inhibition, actives largely listed as inhibitors; AID 1478; P25779; purified cruzain, Z-FR-AMC fluorescence, 0.01% Triton;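 also: plate controls were neutral wells for no effect and buffer without enzyme for full effect; nearly all actives have a fitted effect of over 40% in size; top concentration of the series not given in the record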
Target sequence (P25779 123-467 limits assumed): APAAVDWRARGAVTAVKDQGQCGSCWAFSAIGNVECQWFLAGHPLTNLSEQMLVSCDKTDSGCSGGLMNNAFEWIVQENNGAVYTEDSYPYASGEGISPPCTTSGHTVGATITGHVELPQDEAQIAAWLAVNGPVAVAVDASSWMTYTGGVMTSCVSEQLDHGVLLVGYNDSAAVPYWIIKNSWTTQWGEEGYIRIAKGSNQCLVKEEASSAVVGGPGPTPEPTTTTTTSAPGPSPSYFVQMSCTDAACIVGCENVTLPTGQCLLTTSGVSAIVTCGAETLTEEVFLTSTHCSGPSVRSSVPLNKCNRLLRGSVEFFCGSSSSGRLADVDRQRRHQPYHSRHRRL
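In this qHTS format, compounds are incubated with 1.5 nM cruzain for 15 min at room temperature before 2 uM Z-FR-AMC is added. Release of AMC is followed at 360/450 nm, and progress is taken as the 60 s fluorescence difference.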
LASV entry inh: Lassa virus entry inhibition; Potency, µM (series often up to 37.9 µM), without a hit: at the highest dose activity change, negative = inhibition, usual class: inhibitors; Lassa virus pseudotype entry inhibition, cell reporter; control for the full effect not named in the record; 1.2% of 300,000 active; active means well fitted inhibition curve with a large enough effect; inconclusive means small, poorly fitted or top-dose-only effect, or effect the other way; inactive means flat fitted curve, though single readings scatter; tested in HEK293 cells; also: % is scaled to controls: 0 for no effect and ±100 for the full control effect; nearly all actives have a fitted effect of over 50% in size; luciferase read-out
MARV entry inh: blocks Marburg virus binding to or entry into cells; Marburg virus pseudotyped entry inhibition, cell reporter; control for the full effect not named in the record; about a third of the inactives were read at about 46 µM; Potency, µM (doses to about 37.8 µM), for the others: at the highest dose activity change, negative = inhibition, most hits filed as inhibitors; 1.8% of 300,000 active; AID 540276; active = well fitted inhibition curve with a large enough effect; inconclusive = small, poorly fitted or top-dose-only effect, or effect the other way; inactive = flat fitted curve, though single readings scatter; tested in HEK293 cells; about a fifth of its hits are not listed in these tables; also: % is scaled to controls: 0 for no effect and ±100 for the full control effect; luciferase read-out
2A StopGo: lowers the luciferase signal of an FMDV 2A StopGo reporter; human cells with a luciferase reporter of 2A StopGo recoding; control for the full effect not named in the record; Potency, µM (titrated, usually from 57.9 µM), inactives show top-dose signal change, negative = less light; 1.2% of 410,000 active; active = well fitted falling curve with a large enough effect; inconclusive = small, poorly fitted or top-dose-only effect; inactive = no such curve, though single readings can be large or run the other way; tested in HEK293T cells; also: % is scaled to controls: 0 for no effect and ±100 for the full control effect; nearly all actives have a fitted effect of over 45% in size; luciferase light after 4 h
RE007 growth inh: less growth of the S. pombe RE007 Vpr strain | Potency, µM (top dose mostly 92.2 µM), for the others: at the highest dose activity change, negative = less growth | S. pombe RE007 Vpr strain, BacTiter-Glo ATP luminescence, 24 h; control for the full effect not named in the record | 0.21% of 360,000 active; active = well fitted falling curve with a large enough effect; inconclusive = small, poorly fitted or top-dose-only effect; inactive = no such curve, though single readings can be large or run the other way;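 also: % is scaled to controls: 0 for no effect and ±100 for the full control effect; nearly all actives have a fitted effect of over 50% in size; the assay follows cell death caused by Vpr and the record does not say whether a fall means rescue or toxicity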
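Fission yeast strain RE007, carrying one chromosomally integrated HIV-1 vpr copy, was seeded at OD 0.01 in PMG+AL medium with 23 nL pinned compound. After 24 h at 30 °C and 99% humidity, viability was read by BacTiter-Glo luminescence.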
Cruzain noTriton: cruzain (T. cruzi) inhibition without detergent | purified cruzain, Z-FR-AMC fluorescence, no detergent | P25779 | 2.3% of 200,000 active | Potency, µM, for inactives: max response, negative = inhibition, most hits filed as inhibitors;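 also: plate controls were enzyme without inhibitor for no effect and buffer without enzyme for full effect; nearly all actives have a fitted effect of over 40% in size; top concentration of the series not given in the record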
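Purified cruzain at 1.5 nM, pre-incubated 15 min with compound at room temperature in 100 mM sodium acetate pH 5.5, 5 mM DTT, 0.00005% Triton X-100. Reaction started with 2 uM Z-FR-AMC; AMC fluorescence increase over 60 s gives rate.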
NS1 inh: influenza NS1 inhibition; S. cerevisiae slowed by influenza A NS1, growth recovery by OD600; Potency, µM (doses to about 46.1 µM), for inactives: at the highest dose activity, positive = more growth; 0.4% of 270,000 active; AID 2326; active means well fitted rising curve with a large enough effect; inconclusive means small, poorly fitted or top-dose-only effect; inactive means no such curve, though single readings can be large or run the other way; also: nearly all actives have a fitted effect of over 50% in size
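Recovery from NS1-induced slow growth read by OD600 in budding yeast switched to galactose assay medium (pH 6.0, -URA) at 1:100 dilution. Compound 23 nl per well; the matching strain lacking NS1 serves as control.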
SARS PLP yeast: SARS-CoV PLP inhibition in yeast; Potency, µM (top dose mostly 32.9 µM), for the others: at the highest dose activity, positive = growth rescue; 0.19% of 330,000 active; AID 485353; S. cerevisiae expressing SARS-CoV PLpro, growth rescue; control for the full effect not named in the record; active means well fitted rising curve with a large enough effect; inconclusive means small, poorly fitted or top-dose-only effect; inactive means no such curve, though single readings can be large or run the other way; also: 0% is about no effect; nearly all actives have a fitted effect of over 55% in size; growth read by luminescence after 48 h
* marks the source's active call; other numbers are inactive results; ? = inconclusive; / = not tested or not shown; & = joins results of further samples; [ ] = dose if it differs, or a comment. Unless noted, calls follow the shape of the dose curve; as a rule, active = well fitted curve in the direction sought with a large enough effect; inconclusive = small, poorly fitted or top-dose-only effect, or another doubt; inactive = no such curve, though single readings can be large; an effect the other way counts as inactive or inconclusive. Potency is read from the fitted curve at half-maximal effect.

SMILES	Cruzain inh Det	LASV entry inh	MARV entry inh	2A StopGo	RE007 growth inh	Cruzain noTriton	NS1 inh	SARS PLP yeast
Cc1ccc(C)c(N2CCN(CCCNC(=O)Cn3cc4c(n3)CCCCC4)CC2)c1	-3.5%	/	-1%	?	-3%	6%	?	-9%
COc1ccc2[nH]c(C)c(C(=O)CN3CCOCC3)c2c1	0.7%	18%	1%	-27%	-10%	-17%	4%	0%
CC(=O)Oc1ccc2cc(-c3ccccc3)c(=O)oc2c1	/	?	28%&28%	10%	8%	/	-2%	-1%
Cc1ccc(OC(=O)c2ccc(N3CCOCC3)c([N+](=O)[O-])c2)cc1	-0.7%	3%	15%	-4%	-24%	?	-7%	-35%
C(=N\n1cnnc1)/c1ccccn1	2.9%	5%	?	4%	-13%	-6%	6%	2%
CN(Cc1ccccn1)C(=O)C1CCC(=O)N(Cc2cccc(F)c2)C1 (centres undefined)	/	/	/	-12%	-1%	/	-4%	-7%
O=C1CN(C(=O)/C=C/c2cccc(Cl)c2)c2ccccc2N1	/	?	?	-11%	7%	/	-7%	-6%
O=C(c1ccco1)N1CCN(C(=O)c2cnn(-c3ccc(Cl)cc3)c2C2CCNCC2)CC1	/	1%[46.1 µM]	?	1%	11%	/	3%	1%
CC(C)c1ccc(NC(=O)COC(=O)c2c[nH]c(=O)[nH]c2=O)cc1	1.3%	?	20%	-4%	6%	4%	13%	-1%
O=C(NCCc1ccc(F)cc1)C1CCCO1 (centres undefined)	/	16%[46.1 µM]	-3%[46.1 µM]	21%	-11%	/	19%	14%
OC1(c2ccccn2)COc2ccccc2O1 (centres undefined)	/	26%	11%[46.1 µM]	39%[activator]	-3%	/	7%	1%
Cc1c(C(=O)NCCCc2ccccc2)cccc1[N+](=O)[O-]	-0.1%	5%	20%	0%	-6%	-2%	-6%	-5%
CC1CCc2c(sc(NC(=O)Cn3nnc(-c4ccc(C(F)(F)F)cc4)n3)c2C#N)C1 (centres undefined)	1.1%	-1%[46.1 µM]	6%[46.1 µM]	-20%	/	-11%	/	/
FC(F)(F)Oc1ccc(Nc2nc(N3CCOCC3)nc(N3CCOCC3)n2)cc1	/	/	/	-25%	-6%	/	9%	1%
O=C(c1nn(Cc2ccccc2)c(=O)c2ccccc12)N1CCc2ccccc2C1	1.1%	?	?	-4%	12%	6%	0%	11%
CCOc1ccc(CNCCCSc2ncccn2)cc1OC	/	/	/	1%	-2%	/	5%	1%
NC(=O)C1CCCN(C(=S)Nc2ccccc2)C1 (centres undefined)	-1.0%	1%	0%	-2%	-2%	2%	1%	10%
Cc1ccc(SCC(=O)N2CCc3ccccc32)cc1	-4.6%	0%	28%	68%[activator]	15%	2%	2%	4%
COc1ccc(CCNc2nnc(C)c(=O)[nH]2)cc1OC	3.6%	-15%	11%	/	1%	-6%	-12%	-4%
CCn1c2ccccc2c2cc(NC(=O)COc3cc(C)ccc3C)ccc21	5.7%	2%[46.1 µM]	/	-11%	/	6%	/	/
CCn1c(=O)c2c(nc(SCc3ccccn3)n2C)n(C)c1=O	0.6%	-5%	?	-21%	-2%	-3%	-5%	2%
O=C(Nc1ccccc1)C1=C[C@@H](C2CC2)C[C@@H](OCc2ccc(CO)cc2)O1	/	/	/	55%[activator]	-22%	/	-12%	-2%
CCC(Cc1ccccc1)NC(=O)CSc1ccsc1[N+](=O)[O-] (centres undefined)	-0.7%	-17%	1%	-11%	-3%	5%	-8%	1%
CCOCCn1c(SC(C)C(C)=O)nc2c1c(=O)[nH]c(=O)n2C (centres undefined)	/	/	/	-4%	0%	/	6%	-1%
CC(NC(=O)Cc1ccsc1)c1ccc(Cl)cc1Cl (centres undefined)	/	-11%[46.1 µM]	-8%[46.1 µM]	-6%	-7%	/	-58%	-3%
CCOC(=O)Cc1csc(NC(=O)Cc2ccccc2[N+](=O)[O-])n1	/	24%[46.1 µM]	29%[46.1 µM]	6%	3%	/	/	3%
O=S(=O)(Nc1ccon1)c1cc(Cl)ccc1Cl	/	?	9%[46.1 µM]	-19%	-10%	/	-5%	1%
O=C(CCS(=O)(=O)Cc1ccccc1)NC1CCCCC1	-1.2%	7%	1%	0%	2%	9%	2%	5%
COc1ccc(C(OC(=O)c2ccco2)C(=O)NCC2CCCO2)cc1 (centres undefined)	-0.3%	9%	-1%	-1%	15%	-5%	1%	3%
COC(=O)c1nn(-c2ccccc2)c(Cl)c1/C=N/OC(=O)c1ccc(Cl)c(Cl)c1	5.2%	8%	5%	-4%	-7%	2%	-4%	-3%
O=C(C(c1ccccc1)c1ccccc1)N1CCN(CC(O)COc2ccccc2)CC1 (centres undefined)	3.4%	-7%	-27%&-27%	-22%	-17%	8%	-41%	0%
CCCCC(=O)NS(=O)(=O)c1ccc(NS(C)(=O)=O)cc1	1.2%	?	3%	-3%	0%	-10%	26%	16%
COc1ccc(C2c3sc(=O)[nH]c3SC3C4CCC(C4)C23)cc1 (centres undefined)	-8.9%	-19%	16%&16%	-24%	-24%	?	-68%	-27%
O=C(O)c1ccc(-c2nc(-c3ccc(Cl)cc3Cl)cs2)cc1	/	-11%[46.1 µM]	?	28%	4%	/	/	-6%
CC(=O)c1c(C(C)=O)c(C)n(-c2nc(-c3ccc(C)c(C)c3)c(C)s2)c1C	0.6%	?	?	-24%	5%	17%	-16%	-13%
COc1cc(CN(C)CC2CCCN(CCc3cccc(C(F)(F)F)c3)C2)ccc1O (centres undefined)	/	?	?	-22%	1%	/	0%	-1%
CCn1c(SCC(=O)c2cc(C)n(C)c2C)nnc1-c1ccccc1	4.2%	-27%	?	3%	12%	13%	-5%	-6%
c1ccc(CN2CCC(Nc3nc(-c4cccs4)nc4ccccc34)CC2)cc1	/	?	12µM*	?	6%	/	/	-3%
CCOC(=O)N1CCN(C(=O)CS(=O)(=O)c2cn(Cc3cccc(F)c3)c3ccccc23)CC1	2.3%	15%	-19%&-1%	18%	-16%	?	3%	3%
CC(C)C12CN(C(=O)c3ccccc3[N+](=O)[O-])CC(C(C)C)(CN(C(=O)c3ccccc3[N+](=O)[O-])C1)C2=O	/	-13%	-20%	-17%	3%	/	3%	2%
Cn1ncc2c1ncn1nc(CCc3ccccc3)nc21	3.3%	-11%	6%	/	8%	-1%	-6%	-1%
O=C(O)c1ccccc1C(=O)Nc1ccc(-c2csc(-c3ccccc3)n2)cc1	-13%	2%	?	13%	-6%	?	?	8%
COc1cccc(CNC(=O)CCNS(=O)(=O)c2ccc(Br)s2)c1	/	0%	7%[46.1 µM]	22%	-20%	/	-10%	-2%
Cc1ccc(-n2nc3c(=O)n(CC(=O)NCc4ccco4)nc(C)c3c2C)cc1	-0.9%	-1%[46.1 µM]	/	-17%	/	5%	/	/
COC(=O)c1[nH]c2ccc(F)cc2c1NC(=O)Nc1ccc(OC)cc1	1.3%	-9%	-8%[46.1 µM]	-2%	-23%	-20%	1%	-1%
O=C1CC(Nc2ccc(N3CCOCC3)cc2)C(=O)N1c1cccc(C(F)(F)F)c1 (centres undefined)	-5.0%	/	1%	-15%	-3%	-11%	11µM*	-9%
CCC(CC)NC(=O)Nc1ccccc1C	/	15%	-11%[46.1 µM]	-10%	7%	/	3%	1%
CC(=O)Oc1ccc(Cl)cc1CN(C(C)=O)C1CCCCC1	/	?	?	-19%	-4%	/	/	/
CC1=NN2C(=N)/C(=C\c3cc(C)n(-c4ccccc4)c3C)C(=O)N=C2S1	/	27%[46.1 µM]	1%[46.1 µM]	1%	2%	/	/	-1%
COCCNC(=O)C(NC(=O)C1CCCCC1)C12CC3CC(CC(C3)C1)C2 (centres undefined)	/	/	/	-9%	3%	/	-3%	1%
CCOC(=O)c1cnc2nc(NCc3ccc(OCc4ccccc4)cc3)[nH]n2c1=O	-1.8%	5%	8%	-11%	-5%	-24%	-3%	1%
O=C1CN2C(=Nc3ccc(Cl)cc3C2c2ccccc2)CN1 (centres undefined)	-0.5%	-1%	-9%	0%	5%	-8%	3%	5%
O=C(Nc1nc2ccccc2s1)C1c2ccccc2Oc2ccccc21	-9.4%	-11%	?	?	2%	?	-2%	-83%
CC1(C)Cc2c(sc3c2c(=O)n(Cc2ccccc2)c2nncn32)CO1	3.3%	4%	19%&19%	2%	1%	5%	7%	4%
Cc1cccc(C(=O)OCC(=O)NC(=O)c2ccccc2)c1O	/	-16%[46.1 µM]	-11%	-10%	-1%	/	/	4%
CC1(C)CC(=O)C2=C(C1)OC(=O)CC2c1cccs1 (centres undefined)	/	/	/	-14%	4%	/	-8%	0%
CC1(C)Cc2nc(Cl)c(C(=O)O)cc2CO1	/	1%[46.1 µM]	23%[46.1 µM]	-15%	23%	/	-5%	-1%
COc1ccc(C(=O)COC(=O)Cc2n[nH]c(=O)c3ccccc23)c(OC)c1	/	2%	-13%	?	2%	/	/	-1%
Cc1ccc(S(=O)(=O)N(C)Cc2ccccc2)cc1C(=O)N1CCCCC1	/	-22%	?	?	-20%	/	27%	6%
COc1cc(C(CC(=O)Nc2cc(C)ccc2C)N2Cc3ccccc3C2=O)cc(OC)c1OC (centres undefined)	-3.2%	-19%[46.1 µM]	/	25%	/	14%	/	/
Next results.
SMILES	Cruzain inh Det	LASV entry inh	MARV entry inh	2A StopGo	RE007 growth inh	Cruzain noTriton	NS1 inh	SARS PLP yeast
CN(C)c1nc(N)c(C#N)c(C#N)c1C#N	/	-9%[46.1 µM]	-1%	-22%	-3%	/	/	/
Cc1c(Cl)cccc1NC(c1ccc(F)cc1)c1nnc(-c2ccccc2)o1 (centres undefined)	-4.6%	21%[46.1 µM]	/	-12%	/	?	/	/
Cc1cc2c(c(=O)n1CCN(C)C)C(c1ccncc1)C(C#N)=C(N)O2 (centres undefined)	2.9%	-2%	1%	0%	-13%	-10%	8%	5%
CCOc1ccc(NC(=O)Cn2c(=O)n(Cc3ccco3)c(=O)c3ccc(C(=O)NC4CCCC4)cc32)cc1	-1.6%	21%[46.1 µM]	11%[46.1 µM]	-11%	/	-10%	/	/
